Bioassay records: PubChem, several laboratories
B2AR ag = agonists of human beta-2 adrenergic receptor inducing internalization | P07550 | Am2.2-beta2AR cells, FAP receptor internalization, flow cytometry; reference of the scale not given here | response, % (concentration not given with the values) | 340,000 tested, 0.43% active;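 active = response above a set limit, near 3 SD of response in nonfluorescent compounds, cut at about 42% in these data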;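 note: stock transfer was 100 nL into about 11 µL; a reference agonist was the positive control; negative values mostly stem from fluorescent compounds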
Target sequence (P07550 whole entry, looked up): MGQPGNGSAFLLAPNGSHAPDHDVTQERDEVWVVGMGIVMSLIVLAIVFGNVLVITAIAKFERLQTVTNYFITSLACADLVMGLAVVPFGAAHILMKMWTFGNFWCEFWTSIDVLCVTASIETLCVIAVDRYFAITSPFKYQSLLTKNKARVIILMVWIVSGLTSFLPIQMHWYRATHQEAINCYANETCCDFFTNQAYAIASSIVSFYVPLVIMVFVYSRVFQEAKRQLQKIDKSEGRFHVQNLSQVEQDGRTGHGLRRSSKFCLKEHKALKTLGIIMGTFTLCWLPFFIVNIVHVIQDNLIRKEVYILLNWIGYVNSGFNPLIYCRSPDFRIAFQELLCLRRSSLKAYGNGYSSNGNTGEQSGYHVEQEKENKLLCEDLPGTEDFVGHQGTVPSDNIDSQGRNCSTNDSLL
FGF22 binding = shifts melting point of recombinant human FGF22. Q9HCT0. recombinant FGF22 thermal shift, SYPRO orange fluorescence; percent of sucrose octasulfate shift, DMSO zero. calls only at 9.99 µM. 340,000 tested, 1.5% active. AID 651658;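 active = melting point raised past a set limit in the mean and every replicate; three in four hits are not shown here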
Target sequence (Q9HCT0 whole entry, looked up): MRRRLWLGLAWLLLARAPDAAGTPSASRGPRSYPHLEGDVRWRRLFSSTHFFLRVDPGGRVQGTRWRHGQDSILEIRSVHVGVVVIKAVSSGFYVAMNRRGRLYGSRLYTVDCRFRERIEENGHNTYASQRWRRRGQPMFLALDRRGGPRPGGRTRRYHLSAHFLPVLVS
E coli growth = E. coli growth inhibition; OD600 absorbance (concentration not given with the values); 330,000 tested, 0.21% active; Escherichia coli growth, OD600, 23 h; hits give low values;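 active = OD600 absorbance below the run mean of sample wells minus 3.6 SD, in any replicate, cut at about 0.56 in these data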;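 note: stock transfer was 300 nL into about 60 µL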
ALR H2O2 inh = blocks human ALR sulfhydryl oxidase activity | purified ALR, DTT oxidation, H2O2 HRP-luminol luminescence | inhibition, % (no concentration beside the values) | P55789 | 290,000 tested, 3.8% active | AID 485317;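 active = mean and each replicate at 75% or more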;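 note: stock transfer was 7.5 nL into about 7.5 µL; 0% = neutral wells and 100% = wells with inactivated enzyme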
UCH37 inh = inhibitors of human deubiquitinating enzyme UCH37; Q9Y5K5; purified proteasome/UCH37, Ub-AMC cleavage fluorescence; inhibition, % (concentration not given with the values); 330,000 tested, 0.33% active; AID 588478;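 active = mean of two replicates above 20%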;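 note: 0% = compound-free wells with enzyme and 100% = wells lacking proteasome; stock transfer was 100 nL into about 20 µL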
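system = Proteasome-associated human UCH37 deubiquitinase | amount = 0.15 nM proteasome as dispensed | medium = pH 7.4 Tris-HCl (50 mM) with ovalbumin, ATP-MgCl2, DTT | incubation = 30 min preincubation with enzyme, 25 min cleavage at room temperature | detection = AMC fluorescence 355/460 nm | read-out basis = percent inhibition | controls = no-proteasome and no-compound wells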
rRNA inh HTS = inhibits bacterial ribosomal RNA function over humanized ribosomes. E. coli WT GFP vs humanized-ribosome RFP mutants, fluorescence, 24 h; hits give low values; DMSO median 0, no signal -100. GFP signal change (wild-type ribosome), % (concentration not given with the values). 350,000 tested, 1.6% active;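 active = significant combined selectivity score with lowered wild-type GFP, culture density cut under 30%, mutant RFP and density less affected; inactive = any of these conditions unmet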; note: one replicate is shown; some compounds called inactive have numbers as strong as hits
HNF4A DNA FP = change in binding of human HNF4 alpha to DNA. P41235. AID 1224865. 360,000 tested, 0.3% active. activity change, % at 10 µM. HNF4a-FITC DNA binding, fluorescence polarization, 1 h; in the data active = activity change above about 30%, passing the limit was not always enough;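 note: controls were the assay level and a saturating level of protein; the project sought stronger binding though the title names inhibitors; some compounds called inactive have numbers as strong as hits; positive values seem to mean higher polarization but the record does not say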
Target sequence (P41235 whole entry, looked up): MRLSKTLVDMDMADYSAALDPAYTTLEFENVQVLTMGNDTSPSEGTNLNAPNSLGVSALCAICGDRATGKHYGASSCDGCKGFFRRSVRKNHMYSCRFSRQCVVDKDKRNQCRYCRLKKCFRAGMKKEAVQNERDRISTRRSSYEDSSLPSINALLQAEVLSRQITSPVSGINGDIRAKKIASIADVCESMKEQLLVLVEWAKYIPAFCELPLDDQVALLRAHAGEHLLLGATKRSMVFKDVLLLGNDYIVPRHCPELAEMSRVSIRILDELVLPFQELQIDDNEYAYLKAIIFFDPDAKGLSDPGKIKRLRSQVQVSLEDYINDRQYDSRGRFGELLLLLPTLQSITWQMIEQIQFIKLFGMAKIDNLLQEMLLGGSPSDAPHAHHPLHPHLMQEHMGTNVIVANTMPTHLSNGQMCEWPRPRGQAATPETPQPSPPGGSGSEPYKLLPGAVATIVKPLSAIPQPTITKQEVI
rRNA inh HTS OD600 = also measured in rRNA inh HTS; calls as there; OD600 change, %; measured here: OD600 growth;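 optical density of the mix in the first replicate; 0 = DMSO median and -100 = no signal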
rRNA inh HTS RFP = also measured in rRNA inh HTS; calls as there; RFP signal change, %; measured here: RFP humanized mutant strains;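 first replicate; 0 = DMSO median and -100 = no signal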
Active calls of the source: *; i = inactive; nt = no result given; + = active, no number.

Sequence of screens – B2AR ag | FGF22 binding | E coli growth | ALR H2O2 inh | UCH37 inh | rRNA inh HTS | rRNA inh HTS OD600 | rRNA inh HTS RFP | HNF4A DNA FP
> CN(C)C(=O)/C=C\c1cn(-c2ccccc2)nc1-c1ccc2c(c1)OCCO2
→ -4 | i | 0.67 | -6 | -0.5 | -23 | -39 | -0.4 | -2.1
> CS(=O)(=O)c1ccc(C(=O)Nc2ccccc2Cl)cc1
→ -2 | i | 0.67 | -3 | -0.9 | 3 | 4 | -2.6 | 23
> NC(CCC(=O)NC(CS)C(=O)NCC(=O)O)C(=O)O (stereo unspecified)
→ 1 | i | nt | nt | nt | -1 | 4 | -1.6 | 0.3
> O=C(NCc1cnc2ccccn12)C1CCC(=O)N(Cc2cccc(F)c2)C1 (stereo unspecified)
→ -1 | i | 0.67 | -3 | -3.7 | 7 | 13 | 0.6 | -0.2
> O=C(C#Cc1cccc([N+](=O)[O-])c1)c1ccccc1
→ 88* | nt | 0.62 | 12 | 5.5 | nt | nt | nt | 0.4
> NC(CO)C12CC3CC(CC(C3)C1)C2 (stereo unspecified)
→ 0 | i | 0.66 | 10 | 2.8 | 9 | 4 | 1.0 | 4.1
> CC1(C)NC(=O)N(CC(O)COc2ccc(N3C(=O)c4ccccc4C3=O)cc2)C1=O (stereo unspecified)
→ -2 | nt | 0.72 | -13 | 4.1 | nt | nt | nt | -0.6
> C=CCNC(=S)NC(=O)c1csc([N+](=O)[O-])c1
→ 0 | i | 0.61 | -4 | 3.1 | -7 | -4 | 11 | -1.5
> Cc1ccc(NCc2n[nH]c(=S)n2-c2ccccc2)cc1Cl
→ -4 | i | 0.71 | 88* | 5.8 | -4 | 0 | 22 | 1.1
> C=CCn1c(SCC(=O)NCc2ccco2)nc2sc3c(c2c1=O)CCCC3
→ 3 | nt | 0.81 | 6 | 1.4 | nt | nt | nt | -0.2
> COc1ccc(C(=O)/C=C/c2ccccc2OC)c(OC(=O)c2ccc([N+](=O)[O-])cc2)c1
→ -1 | nt | 0.74 | -4 | 1.5 | 12 | 8 | -5.9 | 1.4
> N#CCCn1nc(-c2ccc(Cl)cc2)cc1Nc1ccccc1NC(=O)C(F)(F)F
→ 1 | nt | 0.7 | 19 | 0.6 | nt | nt | nt | 5.5
> CS(=O)(=O)c1ccc(Cl)c(NC(=O)CSc2nnc(C3CC3)n2C2CC2)c1
→ 1 | + | 0.67 | -7 | 3.5 | -13 | 2 | 1.8 | -1.4
> CN(C)S(=O)(=O)Nc1ccccn1
→ -4 | i | nt | -7 | nt | 7 | 3 | 1.6 | 4.4
> Cc1ccc(S(=O)(=O)NN=C2CC(C)(C)OC2(C)C)cc1
→ nt | i | nt | nt | nt | 1 | 16 | -5.4 | 0.9
> O=C(NCC(c1cccs1)N1CCOCC1)c1ccc(Cl)c(S(=O)(=O)N2CCOCC2)c1 (stereo unspecified)
→ 6 | i | 0.67 | -7 | 2.0 | 1 | 0 | 1.4 | -0.7
> Clc1ccc(OCc2nnc3n2CCCCC3)c(Cl)c1
→ -13 | i | 0.59 | -7 | 54 | -20 | -26 | -4.1 | 0.3
> COCC(C)N=CC1=C(O)CC(C)(C)CC1=O (stereo unspecified)
→ -5 | nt | 0.69 | -1 | 0.9 | nt | nt | nt | -2.7
> COc1cccc(-c2cnc(C(O)c3ccccc3)[nH]2)c1 (stereo unspecified)
→ nt | i | nt | nt | nt | -2 | 2 | 3.1 | 1.0
> O=c1c(F)cn(C2CCCO2)c(=O)n1Cc1c(Cl)cccc1Cl (stereo unspecified)
→ 9 | nt | 0.66 | nt | 2.0 | nt | nt | nt | -4.1
> Nc1nc(-c2cc3c(cc2Cl)OCCO3)cs1
→ -1 | i | 0.62 | 99* | 4.7 | -5 | -9 | 3.3 | -0.1
> O=C(O)C1C2C=CC3(CN(c4cccc(C(F)(F)F)c4)C(=O)C13)O2 (stereo unspecified)
→ 1 | nt | 0.65 | -17 | 2.8 | nt | nt | nt | 1.3
> Cc1cc(=O)oc2cc(NC(=O)c3ccccc3C(=O)O)ccc12
→ -2 | i | 0.69 | 0 | -160 | 12 | 15 | 0.5 | -2.9
> O=C(O)CNC(=O)c1ccc(Sc2ccccc2)c([N+](=O)[O-])c1
→ -7 | i | 0.73 | -5 | 3.7 | 8 | 6 | 2.2 | -0.8
> Cc1[nH]nc2ncc(C(=O)c3cc(F)ccc3O)cc12
→ -6 | nt | 0.68 | 2 | 16 | nt | nt | nt | 0.8
> CN(CC(=O)Nc1ccc(Cl)c(C(F)(F)F)c1)C(=O)c1cccs1
→ 13 | i | 0.67 | -14 | 6.3 | -6 | -7 | -2.5 | 1.6
> CC(=O)CSc1nnc(-c2ccc3c(c2)OCO3)o1
→ 0 | nt | 0.67 | 50 | 0.3 | nt | nt | nt | 2.6
> CCCC1(c2ccccc2)NC(=O)N(CC(=O)Nc2cc(OC)cc(OC)c2)C1=O (stereo unspecified)
→ 11 | i | 0.67 | nt | 4.0 | -10 | -8 | 11 | -0.6
> Cc1nn(CC(=O)NNC(=S)Nc2ccccc2)c(C)c1[N+](=O)[O-]
→ 6 | i | 0.69 | 80* | 2.4 | -1 | 18 | -6.2 | -0.6
> CCOc1cccc(C(=O)N2CCCN(C)CC2)c1
→ 1 | i | 0.66 | -6 | 2.4 | 1 | -3 | 1.0 | 2.8

Complete entries as entered above. Screens in order: B2AR ag	FGF22 binding	E coli growth	ALR H2O2 inh	UCH37 inh	rRNA inh HTS	rRNA inh HTS OD600	rRNA inh HTS RFP	HNF4A DNA FP
N#CCCn1nc(-c2ccc(Cl)cc2)cc1Nc1ccccc1NC(=O)C(F)(F)F in the list: 1	nt	0.7	19	0.6	nt	nt	nt	5.5
CC1(C)NC(=O)N(CC(O)COc2ccc(N3C(=O)c4ccccc4C3=O)cc2)C1=O (stereo unspecified) in the list: -2	nt	0.72	-13	4.1	nt	nt	nt	-0.6

Remaining list, next part
Sequence of screens – B2AR ag | FGF22 binding | E coli growth | ALR H2O2 inh | UCH37 inh | rRNA inh HTS | rRNA inh HTS OD600 | rRNA inh HTS RFP | HNF4A DNA FP
> CC(NC(=O)C1CCN(c2nnc(-n3cccc3)s2)CC1)C12CC3CC(CC(C3)C1)C2 (stereo unspecified)
→ 2 | nt | 0.64 | 2 | 4.2 | nt | nt | nt | -0.9
> CCOc1cc(CNCCO)cc(Br)c1OCc1ccc(Cl)cc1
→ 36 | nt | 0.68 | -5 | -4.0 | nt | nt | nt | -1.8
> Cn1c(CNC(=O)CCNC(=O)c2ccc(Br)cc2)cc(=O)n(C)c1=O
→ 1 | i | 0.66 | 1 | 1.9 | 9 | 24 | 3.1 | -3.0
> O=C(CCSCc1ccccc1F)NCc1cccnc1
→ 2 | i | 0.7 | -9 | 1.0 | 5 | 2 | -0.4 | -2.3
> COc1ccc(NC(=O)c2cc(C3CCCCN3C(=O)Cc3ccc(N(C)C)cc3)on2)c(C)c1 (stereo unspecified)
→ nt | i | nt | nt | nt | -6 | -30 | -1.9 | -0.6
> CCc1ccccc1NC(=O)N[C@@H](C)C(=O)OC
→ -1 | nt | 0.69 | 3 | 6.7 | nt | nt | nt | -2.6
> COCCNC(=O)/C(C#N)=C/c1c(N2CCCCCC2)nc2ccccn2c1=O
→ -23 | i | 0.67 | 2 | 6.3 | 9 | 7 | 0.1 | -2.1
> CN(C(=O)COC(=O)c1cc([N+](=O)[O-])ccc1Sc1ccccc1)C1CCS(=O)(=O)C1 (stereo unspecified)
→ -3 | i | nt | -13 | nt | 11 | 4 | -0.9 | 1.5
> Cc1cc(C)c(NC(=O)Nc2ccccc2C)c(Cl)c1
→ 7 | i | 0.65 | 0 | 4.1 | 10 | 5 | -4.6 | 4.0
> CCCNS(=O)(=O)c1ccc(OCC(=O)N2CCCC2)cc1
→ 8 | i | 0.71 | 3 | 4.0 | 13 | 9 | 3.6 | -2.6
> Cc1cc(C)n2c(SCC(=O)NC3CCCCC3)nnc2n1
→ -11 | i | 0.66 | 43 | -8.4 | 24 | 10 | 4.4 | 1.4
> COc1ccc(-c2noc(-c3cccs3)n2)cc1OC
→ -10 | i | 0.66 | -2 | 0.9 | 12 | 9 | -2.5 | -0.7
> CCN(C(=O)CN1C(=S)NC(C)(C)CC1C)c1ccc(C)c(C)c1 (stereo unspecified)
→ 2 | i | nt | 1 | nt | 6 | 8 | 3.6 | -2.2
> Cc1cccc(-n2c(C)cc(/C=N/NC(N)=S)c2C)c1
→ 13 | nt | nt | 2 | nt | nt | nt | nt | -3.6
> C=CCOc1ccc(CNc2ccc3[nH]c(=O)[nH]c3c2)cc1OCC
→ 27 | i | 0.69 | 98* | 6.0 | 4 | 12 | 7.8 | 0.6
> CC(C)[C@H](NC(=O)[C@@H]1Cc2ccccc2CN1C(=O)OC(C)(C)C)C(=O)NCC1CCC(C(=O)O)CC1 (stereo partly specified)
→ -2 | i | 0.71 | -8 | 5.9 | 4 | 9 | 5.7 | 2.8
> O=C(Nc1ccc(N2CCCCC2)cc1)c1ccccn1
→ 9 | nt | 0.68 | 55 | -1.0 | nt | nt | nt | 0.2
> O=[N+]([O-])c1cccc(-c2noc(COc3ccccc3)n2)c1
→ -5 | nt | 0.65 | -9 | 0.7 | 15 | 12 | 1.1 | -4.5
> CCNc1nc(NCc2ccccc2)nc(SCC(N)=O)n1
→ -2 | i | 0.72 | 0 | 0.1 | 9 | 10 | 1.6 | 1.8
> Cc1cc(C2(c3ccc(O)c(C)c3)C(=O)Nc3ccccc32)ccc1O
→ 4 | nt | 0.64 | nt | 4.3 | nt | nt | nt | -2.0
> COC(=O)[C@@H](NC(=O)NCc1ccccc1Cl)C(C)C
→ -2 | nt | nt | -6 | -0.2 | nt | nt | nt | -3.2
> CC(C)C(=O)NC(=S)N(Cc1ccccc1)Cc1ccccc1
→ -7 | i | 0.73 | 5 | 3.2 | -17 | -23 | 2.6 | 1.3
> CCC(Sc1nc(C)cc(=O)[nH]1)C(=O)Nc1sc2c(c1C#N)CCCC2 (stereo unspecified)
→ -1 | i | 0.71 | 10 | 0.4 | 0 | 2 | 4.3 | -4.0
> CN(C(=O)c1cccc(NC(=O)Cc2ccc(NC(=O)C3CCN(C(=O)C4CCC4)CC3)cc2)c1)C1CCCCC1
→ -5 | i | 0.72 | nt | 1.7 | -12 | -2 | 4.2 | 1.4
> CC(C)OP(=O)(OC(C)C)C1(O)C(=O)Nc2ccccc21 (stereo unspecified)
→ -1 | nt | 0.72 | -6 | 1.9 | nt | nt | nt | 0.6
> CC(C)(C)c1ccc(OCC(=O)N2CCN(C=O)CC2)cc1
→ 3 | nt | 0.79 | 1 | 2.1 | nt | nt | nt | -3.0
> COc1ccc(-c2[nH]ncc2-c2cnc(C)s2)c(O)c1
→ -1 | i | 0.65 | -23 | 6.6 | -1 | 9 | -4.2 | 2.6
> O=C(COc1cccc(-n2cnnn2)c1)NC1CCCCC1
→ -4 | i | 0.62 | 2 | 1.1 | 6 | 5 | -2.0 | -2.9
> CC(C)C(NC(=O)CN1C(=O)c2cccc3cccc1c23)C(C)C
→ -11 | i | 0.66 | -16 | -72 | 14 | 2 | -0.5 | -1.6
> COc1cccc(C(=O)NCC2CCCN(C3CCCCC3)C2)c1OC (stereo unspecified)
→ -5 | i | 0.7 | 1 | 3.7 | 6 | 10 | -1.9 | 0.5
> CC(=O)Nc1nc2[nH]ccc2c(=O)[nH]1
→ nt | i | nt | nt | nt | 5 | 6 | 1.9 | 1.2
> CCOc1ccc(CCNC(=O)COn2nnc3ccc(S(=O)(=O)N4CCOCC4)cc32)cc1OCC
→ -4 | i | 0.69 | -11 | 0.0 | -5 | -5 | -1.3 | 0.2

An excerpt. The share of hits here may be higher or lower than overall.
